Menin MLL FP FL: displaces fluorescein MLL peptide from human menin | FP activity change, % at 61.4 µM | 290,000 tested, under 10 active | Fluorescence polarization, fluorescein-MLL peptide displacement from menin; inconclusive = falling polarisation curve, or a change in total fluorescence; inactive = total fluorescence flat and polarisation flat or rising; no compound was filed as active; the % refers to the polarisation; negative = inhibition;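 also: % of control where 0% means no effect; inhibitors lower the polarisation; unlabelled MLL peptide was the positive control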
ClpP mod: qHTS Assay for Activators of ClpP; purified B. subtilis ClpP, FRET peptide cleavage, 20 min; Potency, µM (highest dose often 57.5 µM), for the others: at the top dose activity change, negative = active; hit rate 1.9% among 340,000; active = well fitted falling curve with a large enough effect; inconclusive = small, poorly fitted or top-dose-only effect; inactive = no such curve, though single readings can be large or run the other way; also: potency is read from the fitted curve at half-maximal effect; the source files actives as falling curves though it sought activators and does not explain the sign; nearly all actives have a fitted effect of over 65% in size; many hits overshoot -100%
Target sequence (P80244 whole entry, looked up): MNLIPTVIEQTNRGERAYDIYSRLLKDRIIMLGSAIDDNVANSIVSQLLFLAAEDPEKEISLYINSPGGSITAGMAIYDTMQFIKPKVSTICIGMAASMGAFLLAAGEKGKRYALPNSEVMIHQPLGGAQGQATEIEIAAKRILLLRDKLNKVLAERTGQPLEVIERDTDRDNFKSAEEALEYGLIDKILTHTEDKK
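ClpP 10 microg/mL final, pH 8 Tris/KCl buffer with BSA, glycerol, Tween-20; compound pinned in; FRET-FV substrate; RT 20 min; Ex320/Em430; ΔFRET vs ADEP 5.8 microM, DMSO, no enzyme.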
gsp agonist: agonists of gsp mutant (McCune-Albright syndrome); Potency, µM (titrated, usually from 76.9 µM), for the others: at the top dose activation (cAMP increase), actives largely listed as activators; hit rate 0.13% among 340,000; gsp mutant cells, cAMP HTRF, 30 min; control for the full effect not named in the record; active = well fitted activation curve with a large enough effect; inconclusive = small, poorly fitted or top-dose-only effect, or another doubt; inactive = no such curve, though single readings can be large or run the other way; cell line not stated here;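 also: phosphodiesterase inhibitor Ro 20-1724 added with compounds to block cAMP breakdown; potency is read from the fitted curve at half-maximal effect; nearly all actives have a fitted effect of over 60% in size; about a fifth of the inactives were tested at one dose only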
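Cells in DMEM/10% FBS with G418 were pretreated with compounds in DMSO plus […] (300 uM stock) for 30 min at 37C. cAMP was measured by HTRF (cAMP-d2 plus anti-cAMP antibody-K) after 30 min at room temperature.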
TRPV1 PAM: potentiators of human vanilloid receptor 1 (TRPV1) | AID 540277 | hit rate 0.02% among 320,000 | potentiation, % at 8.33 µM | TRPV1-expressing cells, Fluo-8 calcium influx, capsaicin EC20 potentiation; host cell line not named in the record; control for the full effect not named in the record; active means potentiation above 80%; inconclusive means 30% to 80%; inactive means below 30%; also: 0% is about no effect
Target sequence (Q8NER1 whole entry, looked up): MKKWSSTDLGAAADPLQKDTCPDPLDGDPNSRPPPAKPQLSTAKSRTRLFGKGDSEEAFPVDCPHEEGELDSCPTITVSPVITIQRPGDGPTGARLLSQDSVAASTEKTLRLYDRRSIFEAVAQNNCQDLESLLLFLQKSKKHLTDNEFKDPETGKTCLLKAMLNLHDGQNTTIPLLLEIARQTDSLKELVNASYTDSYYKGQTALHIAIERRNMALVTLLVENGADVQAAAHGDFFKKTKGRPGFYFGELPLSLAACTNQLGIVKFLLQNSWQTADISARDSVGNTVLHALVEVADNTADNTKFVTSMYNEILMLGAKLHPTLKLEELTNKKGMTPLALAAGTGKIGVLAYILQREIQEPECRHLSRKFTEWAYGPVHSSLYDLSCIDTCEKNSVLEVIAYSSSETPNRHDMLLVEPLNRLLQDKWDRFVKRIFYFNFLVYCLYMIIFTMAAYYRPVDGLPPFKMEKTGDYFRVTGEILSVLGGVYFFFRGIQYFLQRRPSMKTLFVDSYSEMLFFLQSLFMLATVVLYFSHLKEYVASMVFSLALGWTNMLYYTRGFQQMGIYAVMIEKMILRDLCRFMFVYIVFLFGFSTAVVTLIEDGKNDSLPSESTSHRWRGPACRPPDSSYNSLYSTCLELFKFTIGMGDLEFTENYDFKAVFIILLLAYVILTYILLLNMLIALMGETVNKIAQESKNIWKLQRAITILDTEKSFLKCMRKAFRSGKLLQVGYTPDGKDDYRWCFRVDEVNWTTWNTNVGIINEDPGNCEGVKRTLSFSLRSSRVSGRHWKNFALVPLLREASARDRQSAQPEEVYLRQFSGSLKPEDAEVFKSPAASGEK
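Cells expressing TRPV1 were dye-loaded with Fluo-8 and read kinetically: 10 s baseline, 3 min after compound (agonist portion), then 2 min after EC20 capsaicin (allosteric enhancer portion). Calcium-bound dye fluorescence at 480/520 nm.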
gsp antag: antagonists of gsp mutant (McCune-Albright syndrome); hit rate 0.4% among 340,000; gsp-mutant cells, cAMP HTRF, 30 min; control for the full effect not named in the record; Potency, µM (doses to about 76.9 µM), without a hit: at the top dose activity change, negative = inhibition, actives largely listed as inhibitors; active = falling curve of any shape with a large fitted effect; inconclusive = falling curve, mostly with a smaller effect; inactive = flat or rising curve; cell line not stated here;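 also: intracellular cAMP measured with PDE inhibitor Ro 20-1724 present during compound exposure; potency is read from the fitted curve at half-maximal effect; % is scaled to controls: 0 for no effect and ±100 for the full control effect; nearly all actives have a fitted effect of over 65% in size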
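HTRF cAMP measurement after 30 min RT detection following 30 min, 37C compound treatment alongside […] (added as 300 uM solution) in G418-selected cells seeded at 2000/well and grown 16–24 h.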
Sfp PPTase inh: inhibitors of Bacillus subtilis Sfp phosphopantetheinyl transferase | Q9F4F7 | Biochemical Sfp PPTase activity, qHTS | Potency, µM, for inactives: max response, negative = inhibition, actives largely listed as inhibitors | hit rate 3.5% among 310,000 | AID 1490; active = well fitted inhibition curve with a large enough effect; inconclusive = small, poorly fitted or top-dose-only effect, or another doubt; inactive = no such curve, though single readings can be large or run the other way;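 also: the enzyme is Sfp with the accession as filed and its product quenches rhodamine fluorescence; potency is read from the fitted curve at half-maximal effect; 0% = enzyme reaction without inhibitor and -100% = no enzyme wells; top concentration of the series not given in the record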
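Sfp 15 nM + cpd, 15 min RT; start w/ rhodamine-CoA 5 uM, BHQ-2-YbbR 12.5 uM (final); 50 mM Hepes pH 7.6, 10 mM MgCl2, 0.01% NP-40, 0.01% BSA; read 525/598 nm at 0 and 30 min.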
CtBP-E1A blk: inhibitors of CtBP/E1A interaction. AlphaScreen GST-E1A/His-CtBP binding, 1536-well; hits give low values; control for the full effect not named in the record. activity change, % (test concentration not listed). hit rate 0.49% among 340,000; in the data active means activity change below about -65%; inconclusive means about -30% to -65%; inactive means above about -30%; also: % is scaled to controls: 0 for no effect and ±100 for the full control effect; compound concentration not given in the record
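Steps: dispense buffer (Tris pH 8.0, NaCl 300 mM, TCEP 1 mM, BSA, Tween 20); add 5X protein mix (GST-E1A, His-CtBP, 125 nM each); pin 23 nL compound; 2 h at 37 °C, dark; add 5X beads (50 ug/mL); 1 h; read.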
* marks the source's active call; other numbers are inactive results; ? = inconclusive; · = not tested or not shown; [ ] = another dose, or the depositor's remark.

SMILES	Menin MLL FP FL	ClpP mod	gsp agonist	TRPV1 PAM	gsp antag	Sfp PPTase inh	CtBP-E1A blk
Cc1cccc(C)c1NC(=O)CS(=O)CC(=O)Nc1ccc(N2CCOCC2)cc1 (configuration not stated)	?	·	?	5	2%	3%	-12
CC(C(=O)Nc1ccncc1)(c1ccccc1)c1ccccc1	3.4	0.4%	?	0	5%	17%	6
O=C(CCc1nnc(Cc2ccc(-c3ccccc3)cc2)o1)NCC1CC1	-1.6	·	21%	2	-12%	1%	0
O=S(=O)(c1ccc(F)c(F)c1)N1CCN(S(=O)(=O)c2cccs2)CC1	·	1.3%	-8%[15.4 µM]	-18	11%	14%	2
CCOC(=O)c1cn(CC)c2cc(N3CCCCC3)c(F)cc2c1=O	·	-9.6%	?	·	24%	·	-1
Cc1nc(NCCN2CCOCC2)c2nnn(Cc3c(F)cccc3Cl)c2n1	-1.2	0.3%	-4%	-9	7%	8%	1
CC(C)OC(=O)CSc1nnc(C2CCCCC2)n1N	-8.9	0.0%	-33%[inhibitor]	2	10%	-7%	·
CCSc1nc(N)nc2c1ncn2C1OC(CO)C(O)C1O (configuration not stated)	·	?	-20%	·	8%	·	0
O/N=C1\CCc2cc(Cl)ccc21	1.9	0.9%	-3%	1	15%	1%	1
CSc1cccc(-n2cc(-c3ccc4c(c3)OCO4)[nH]c2=O)c1	2.4	-2.5%	-1%	-4	19%	-19%	-20
CCOc1ccc(-c2nc(CSCC(=O)NCCN3CCOCC3)c(C)o2)cc1	0.4	32µM*	-34%[inhibitor]	-2	2%	0%	0
Cc1ccc(C(=O)N2CCCC(c3nc4c(nnn4Cc4ccccc4)c(=O)[nH]3)C2)cc1 (configuration not stated)	-4.9	0.1%	31%	19	8%	-16%	-1
C=CCN1C(=O)CS/C1=C(\C#N)S(=O)(=O)c1ccc(C)cc1	26	-3.8%	-6%	7	-1%[15.4 µM]	2%	-3
NC(=O)COC(=O)c1sc2cc(F)ccc2c1Cl	-0.6	-11%	?	-2	-3%	-9%	-1
COc1ccc(OCC(=O)Nc2ccc3c(c2)C(=O)NC3=O)cc1	·	-5.8%	-4%	-7	3%	-6%	-4
CCCCOc1ccc(-c2nc(/C=N/c3nccs3)c(O)o2)cc1	16	-1.7%	9%	2	4%	16%	3
Fc1ccc(CNC(=S)Nc2ccccc2F)cc1	-1.6	-1.1%	22%	-11	8%	-4%	·
Cc1cccc(N2CCN(C(=O)c3cccc(S(=O)(=O)N4CCCCC4)c3)CC2)c1C	·	0.6%	16%[15.4 µM]	·	-25%	·	6
COc1cc(C(c2sc3ncnn3c2O)N2CCN(c3ccccc3F)CC2)cc(OC)c1OC (configuration not stated)	2.7	-0.7%	-50%[inhibitor]	-7	4%	19%	?
CCc1ccc(CN(C(=O)c2oc3ccccc3c2C)C2CCS(=O)(=O)C2)cc1 (configuration not stated)	-1.4	0.8%	-48%[inhibitor]	13	?	-1%	0
COC(=O)CC(c1ccc(C#N)cc1)n1c(C)ccc1C (configuration not stated)	-3.7	·	-16%	2	-1%	28%	-5
CCOC(=O)c1[nH]c2ccccc2c1NC(=O)c1cc(OC)c(OC)c(OC)c1	·	-0.1%	-43%[inhibitor]	·	12%	·	-1
Cc1cccc(NC(=O)C2CCCN(C(=O)Nc3ccc(F)cc3)C2)c1C (configuration not stated)	·	·	7%	-11	5%	15%	-4
CCOC(=O)N1CCN(C(=O)COc2ccc(S(=O)(=O)NCc3ccccc3)cc2)CC1	-0.2	-3.9%	28%	14	-2%	2%	-8
CCC(Sc1nc(C)cc(C)n1)C(=O)Nc1ccc(Cl)cn1 (configuration not stated)	1.5	0.6%	-23%	-5	-13%	7%	8
Cc1ccccc1OCc1nc(-c2ccc(-n3cccc3)cc2)no1	2.6	?	19%	·	3%	14%	7
N/C(=N\OC(=O)Cc1cccs1)c1ccc(Cl)cc1	0.0	-2.9%	25%	0	-3%	-8%	·
CCOCCCNCc1cccc(OC)c1	2.2	-1.2%	5%	-14	-2%	-15%	2
CC(C)C(C(=O)Nc1ccccc1)N1C(=O)c2ccccc2C1=O (configuration not stated)	3.4	0.9%	-22%	-7	3%	13%	1
COc1cccc(C(=O)CSc2nc3cccnc3n2C)c1	5.6	0.4%	1%	-2	11%	-22%	7
Cn1c(CNc2nc3ccccc3n2C)nc2ccccc21	-1.4	0.1%	12%	-5	-1%	6%	-2
Cc1ccc(NC(=O)CSc2nc(N)c3c4c(sc3n2)CSC(C)(C)C4)cc1	4.0	-0.5%	-23%	15	-30%	11%	-14
CCOC(=O)c1ccc(NC(=O)C2CCN(S(=O)(=O)c3c(C)nn(C)c3C)CC2)cc1	0.0	1.2%	-43%[inhibitor]	-21	-13%	-2%	-12
Cc1ccc(S(=O)(=O)NC(=O)NCCCN2CCOCC2)cc1	-3.1	·	26%	-3	7%	9%	3
CC(C)n1c(CCC(=O)O)ccc1-c1ccccc1	4.8	4.7%	3%	-31	-1%	14%	-8
O=C1CCCN1CC(O)CS(=O)(=O)Cc1ccccc1 (configuration not stated)	-11	-1.8%	10%	7	9%	7%	4
O=S(=O)(NCCc1ccc(F)cc1)c1cccc2cccnc12	-1.6	·	-15%[15.4 µM]	2	1%	9%	·
COc1cccc(N2C(=O)C3NN=C(C(=O)CN4C(=O)c5ccccc5C4=O)C3C2=O)c1 (configuration not stated)	-0.6	·	23%[15.4 µM]	-25	-4%	2%	-1
CC(C)=CCC[C@](C)(O)C1CC[C@]2(C)C1[C@H](O)CC1[C@@]3(C)CC[C@H](O[C@@H]4O[C@H](CO)[C@@H](O)[C@H](O)[C@H]4O[C@@H]4O[C@H](CO)[C@@H](O)[C@H](O)[C@H]4O)C(C)(C)C3CC[C@]12C (some centres not stated)	·	1.4%	-25%	·	-4%	·	-2
O=C(CSc1nc(=O)n2ccccc2n1)Nc1ccc2c(c1)OCO2	·	·	37%[15.4 µM]	0	27%	·	-6

Laid out differently: entries from further up.
Molecule,Menin MLL FP FL,ClpP mod,gsp agonist,TRPV1 PAM,gsp antag,Sfp PPTase inh,CtBP-E1A blk
O=C1CCCN1CC(O)CS(=O)(=O)Cc1ccccc1 (configuration not stated),-11,-1.8%,10%,7,9%,7%,4
COc1cccc(N2C(=O)C3NN=C(C(=O)CN4C(=O)c5ccccc5C4=O)C3C2=O)c1 (configuration not stated),-0.6,·,23%[15.4 µM],-25,-4%,2%,-1
CCC(Sc1nc(C)cc(C)n1)C(=O)Nc1ccc(Cl)cn1 (configuration not stated),1.5,0.6%,-23%,-5,-13%,7%,8

Some of these compounds in order of the CtBP-E1A blk value, descending.
mol,CtBP-E1A blk
CCOCCCNCc1cccc(OC)c1,2
CCOC(=O)c1[nH]c2ccccc2c1NC(=O)c1cc(OC)c(OC)c(OC)c1,-1
O=C(CSc1nc(=O)n2ccccc2n1)Nc1ccc2c(c1)OCO2,-6
CC(C)n1c(CCC(=O)O)ccc1-c1ccccc1,-8

The list goes on:
SMILES	Menin MLL FP FL	ClpP mod	gsp agonist	TRPV1 PAM	gsp antag	Sfp PPTase inh	CtBP-E1A blk
CCCCOc1cccc(-c2nnc(N)s2)c1	0.4	-25%	18%	4	2%	14%	2
Cc1cc(C(=O)Nc2ccccc2Cl)n(-c2ccccc2)n1	4.8	-0.3%	?	1	6%	4%	5
Cc1ccc(Nc2nc(N)nc(CN3CCCCCC3)n2)cc1	9.1	1.4%	-51%[inhibitor]	?	7%	-10%	-21
Cc1nc(NCCN)c(C#N)c2c1COC(C)(C)C2	-2.4	?	-2%	0	-17%	-4%	7
COc1cc(CNCc2ccncc2)cc(Br)c1OCc1ccccc1F	0.3	0.9%	-42%[inhibitor]	-7	32µM*	-4%	37
Cc1ccc2c(C)c(C(=O)NCCN3CCOC3=O)oc2c1C	2.5	-23%	-41%[inhibitor]	-5	9%	9%	-11
CCCCN(C)C(=O)CNC(=O)c1nn(-c2ccc(OC)cc2OC)c(=O)c2ccccc12	6.0	-2.5%	-1%[15.4 µM]	5	-5%	12%	-16
O=C(Nc1cccc(S(=O)(=O)N2CCCCCC2)c1)C1CCN(C(=O)c2ccc(F)cc2)CC1	·	0.7%	-6%	25	-18%	·	-1
O=C(Cc1ccccc1)Nc1cccc(-c2nnc(-c3ccco3)o2)c1	-2.2	25µM*	-14%	·	-1%	?	-7
O=C(Cn1cnc2c(cnn2-c2ccc(F)cc2)c1=O)NCC1CCCO1 (configuration not stated)	7.4	-7.6%	?	10	9%	13%	2
CC(=O)c1cccc(NC(=O)CN(C)S(=O)(=O)c2cccc3nsnc23)c1	-4.6	-1.8%	9%	12	-6%	12%	·
Cc1ccc(Sc2ncccc2C(=O)NCc2cc([N+](=O)[O-])ccc2O)cc1C	·	0.4%	?	11	?	16%	?
Oc1ccccc1-c1cc(-c2cccc(F)c2)n[nH]1	1.3	-3.1%	8%	18	?	3%	1
COC(=O)CSc1nnc(-c2c[nH]c3ccccc23)o1	0.9	0.5%	16%	?	-8%	7%	·
COc1ccc(CNC(=O)COC(=O)c2cc(-c3ccco3)nc3ccccc23)cc1	4.0	·	·	-14	·	?	·
CCCN(CCC)C1Sc2ccc(C(=O)OC)cc2NC1=O (configuration not stated)	0.2	0.1%	0%	-12	-4%	2%	11
COc1ccc(-c2c(C)oc3cc(O)cc(O)c3c2=O)cc1OC	3.4	-1.0%	?	7	-14%	11%	-2
Cc1nnc(SC(C)C(=O)NC2CCCCC2C)n1N (configuration not stated)	·	·	-9%[15.4 µM]	1	13%	·	5
COC(=O)c1sccc1NC(=O)Nc1cccc(C)c1	-1.7	-6.8%	17%	-12	?	-14%	·
Cc1nnsc1C(=O)N1CCCC(C(=O)c2ccc(C(F)(F)F)cc2)C1 (configuration not stated)	2.3	1.4%	-88%[inhibitor]	-1	2%	11%	·

Part of the list above, limited to Menin MLL FP FL, CtBP-E1A blk and TRPV1 PAM:
SMILES,Menin MLL FP FL,CtBP-E1A blk,TRPV1 PAM
Cc1ccc2c(C)c(C(=O)NCCN3CCOC3=O)oc2c1C,2.5,-11,-5
CCCCN(C)C(=O)CNC(=O)c1nn(-c2ccc(OC)cc2OC)c(=O)c2ccccc12,6.0,-16,5

Source: PubChem BioAssay
